PrP UTR inh: inhibition of PrP 5' UTR reporter expression | cell-based PrP 5' UTR mRNA reporter, plate reader | inhibition, % (concentration not given with the values) | actives 0.35% (n = 340,000) | AID 488862, 2010;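 active = every replicate at 50% or more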;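 also: 0 = median of the neutral control wells; tested in H4 reporter cells; numbers are from one replicate; inactives centre near -14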
Sa RN4220 lethal: growth inhibition of S. aureus RN4220, primary screen, OD600; 16 h; inhibition, % (concentration not given with the values); actives 0.33% (n = 330,000);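 active = z-score of -3 or lower and OD600 up to 0.18 on both plates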;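 also: plate controls were untreated cells for no effect and reference antibiotic for full effect; stock transfer was 100 nL into about 80 µL; one replicate is shown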
Bead autofluor: compound fluorescence in toxin protease inhibitor counterscreen; fluorescence intensity (no concentration beside the values); actives 3.1% (n = 360,000); compound autofluorescence counterscreen, microsphere flow cytometry; hits give high values; AID 624483;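 active = at least 3 SD above the mean of all compounds, about 16000 in these data; inconclusive = too few beads counted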;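 also: 100 nL of 1 mM stock went into each well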
Mtb hypoxia rep: PubChem AID 1159583 | M. tuberculosis hypoxia-regulated fluorescent reporter, fluorescence | fluorescence inhibition, % (test concentration not listed) | actives 0.1% (n = 300,000);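 active = 35 to 45% if threefold the growth effect, above 45% if 1.5-fold the growth effect; inactive = the rest, general growth blockers included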;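 also: wells of about 50 µL received 100 nL stock; 0% = vehicle wells and 100% = reference inhibitor wells; whole bacteria with a GFP reporter of the hypoxia response; strong numbers were not always called active; many hits fall short of the cut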
Sa ugtP lethal: growth inhibition of ugtP-null S. aureus, primary screen, RN4220 ugtP deletion, OD600; 16 h; some inactives read as strong as hits; AID 1259309, 2017; growth inhibition, % (no concentration beside the values); actives 0.54% (n = 330,000);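 active = z-score under -3 and OD600 up to 0.15 on both plates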;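 also: plate controls were untreated wells for no effect and antibiotic for full effect; wells of about 80 µL received 100 nL stock; the first replicate is given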
BJeLR viability: MLPCN primary cell-based screen for lethality selective to Ras in HRASV12 cells. BJeLR (HRASV12) viability, CellTiter-Glo ATP luminescence, 48 h; reference of the scale not given here. inhibition, % (test concentration not listed). actives 0.17% (n = 300,000). AID 1554, 2009;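 active = replicate mean above 50%; inconclusive = above 50% but judged a plate artefact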;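 also: 50 nL library stock added to about 25 µL; numbers are from one replicate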
Mtb hypoxia rep growth: further read-out of Mtb hypoxia rep, marked with its call; growth inhibition, %; measured here: M. tuberculosis growth (absorbance);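 0% = vehicle and 100% = reference antibiotic; read after six days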
* marks the source's active call; other numbers are inactive results. Compounds were not picked by outcome. Share with any hit: about 4%.

`O=C1NC(c2ccc(Br)cc2)Nc2sc3c(c21)CCC3` (configuration not stated) gave PrP UTR inh -16.2, Bead autofluor 22598* and BJeLR viability -6.3.
Fc1ccc(CNCc2ccccc2Cl)cc1 was read as PrP UTR inh 1.2, Sa RN4220 lethal 7.9, Bead autofluor 4435, Mtb hypoxia rep 2.0, Sa ugtP lethal 5.2, BJeLR viability 8.7 and Mtb hypoxia rep growth 9.8.
For O=C(CSc1nc2c(c(=O)n1-c1ccc(Cl)cc1)SCC2)NCC1CCCO1 (configuration not stated) the results were PrP UTR inh -19.1, Sa RN4220 lethal 0.5, Bead autofluor 3514, Mtb hypoxia rep 5.0, Sa ugtP lethal -6.1, BJeLR viability -0.5 and Mtb hypoxia rep growth 5.3.
`COC(=O)c1cccc(NS(=O)(=O)c2ccc(OC)c(OC)c2)c1C` gave PrP UTR inh -16.6, Sa RN4220 lethal 1.0, Bead autofluor 10859, Mtb hypoxia rep 4.4, Sa ugtP lethal 0.7, BJeLR viability 9.7 and Mtb hypoxia rep growth 12.5.
COc1ccccc1OCc1ccc(C(=O)Nc2ccc(Cl)cn2)o1 was read as PrP UTR inh -16.6, Sa RN4220 lethal 5.5, Bead autofluor 2678, Mtb hypoxia rep 8.3, Sa ugtP lethal 14.0, BJeLR viability 2.9 and Mtb hypoxia rep growth 3.6.
`COC(=O)c1ccc(/C=N/Nc2nc(N3CCCCC3)nc(N3CCCCC3)n2)cc1` gave PrP UTR inh -12.9, Bead autofluor 2205 and BJeLR viability -0.8.
`CC(C)COc1ccc(S(=O)(=O)NNC(=O)c2cc3ccccc3o2)cc1` gave PrP UTR inh -6.5, Sa RN4220 lethal 1.5, Bead autofluor 10267, Mtb hypoxia rep -0.5, Sa ugtP lethal -19.5, BJeLR viability -10.9 and Mtb hypoxia rep growth -9.9.
For O=C(CSc1nc2[nH]ncc2c(=O)[nH]1)Nc1ccc(F)cc1 the results were PrP UTR inh 0.4, Sa RN4220 lethal 2.3, Mtb hypoxia rep -10.1, Sa ugtP lethal 0.7, BJeLR viability 7.8 and Mtb hypoxia rep growth 4.4.
COC(=O)C1=C(c2cccc(C#N)c2)CC2CCC1N2C(=O)NC(C)C (configuration not stated) was read as Sa RN4220 lethal 5.1, Mtb hypoxia rep 3.7, Sa ugtP lethal -1.0 and Mtb hypoxia rep growth 8.1.
`CCOc1ccccc1CNCCc1ccc2c(c1)OCO2` gave PrP UTR inh -17.6, Sa RN4220 lethal 0.9, Bead autofluor 3505, Mtb hypoxia rep 8.4, Sa ugtP lethal -4.3, BJeLR viability -5.3 and Mtb hypoxia rep growth 1.8.
Screening CCOc1ccc(S(=O)(=O)NCc2ccccc2OC)cc1 returned PrP UTR inh -23.1, Sa RN4220 lethal 14.3, Bead autofluor 3157, Mtb hypoxia rep 3.6, Sa ugtP lethal 8.3, BJeLR viability 0.7 and Mtb hypoxia rep growth -6.9.
Cc1cc(C)nc(NC(=O)CSc2nccc(C)n2)n1 was read as PrP UTR inh -13.5, Sa RN4220 lethal -3.2, Bead autofluor 2482, Mtb hypoxia rep -3.7, Sa ugtP lethal 2.6, BJeLR viability -14.0 and Mtb hypoxia rep growth -0.9.
COc1ccc(COC(=O)N/N=C/c2cccs2)cc1 was read as PrP UTR inh -65.6, Bead autofluor 3686 and BJeLR viability 6.8.
`Cc1ccc(S(=O)(=O)N2CCOCC2)cc1NC(=O)CSCc1c(C)noc1C` gave PrP UTR inh -15.0, Sa RN4220 lethal 3.3, Bead autofluor 6322, Mtb hypoxia rep 3.3, Sa ugtP lethal 5.7 and Mtb hypoxia rep growth 9.0.
`Cc1c(C(=O)NN=Cc2ccc(O)cc2)sc(=S)n1C` gave Sa RN4220 lethal 1.2, Mtb hypoxia rep 5.5, Sa ugtP lethal 10.8 and Mtb hypoxia rep growth 4.2.
`Nc1c(N2CCCC2)cc(Cl)c2nonc12` gave PrP UTR inh -19.1, Sa RN4220 lethal 9.5, Bead autofluor 9434, Mtb hypoxia rep 1.3, Sa ugtP lethal 2.5, BJeLR viability -3.6 and Mtb hypoxia rep growth 2.5.
`Cc1cccc(NC(=O)c2nc[nH]c2C(=O)N[C@@H](CC(C)C)C(=O)OCc2ccccc2)c1` gave PrP UTR inh -10.5, Bead autofluor 3559 and BJeLR viability 4.7.
For N#Cc1c(NC(=O)CN2CCOCC2)oc(-c2ccccc2)c1-c1ccccc1 the results were PrP UTR inh -17.1, Sa RN4220 lethal -3.5, Bead autofluor 4129, Sa ugtP lethal 6.7 and BJeLR viability 7.2.
For CCOc1ccc(NC(=O)COc2ccc(OC)cc2)cc1 the results were PrP UTR inh -3.7, Sa RN4220 lethal 3.9, Bead autofluor 2625, Mtb hypoxia rep -1.1, Sa ugtP lethal 14.4, BJeLR viability -4.9 and Mtb hypoxia rep growth 4.1.
For O=C(CCCSc1nc2ccccc2[nH]1)Nc1nnc(-c2ccccc2)o1 the results were PrP UTR inh -4.9, Sa RN4220 lethal 1.7, Bead autofluor 22546*, Mtb hypoxia rep 2.5, Sa ugtP lethal -6.5, BJeLR viability -1.0 and Mtb hypoxia rep growth 20.0.
Screening CCc1ccc(C2N(c3ccc(OC)cc3)C(=O)C3CCCN32)cc1 (configuration not stated) returned PrP UTR inh -8.9, Sa RN4220 lethal 1.7, Bead autofluor 4178, Sa ugtP lethal 6.2 and BJeLR viability -2.7.
COc1ccc(-c2cc(C(=O)N3CCc4ccccc4C3)no2)cc1OC was read as PrP UTR inh -33.8, Sa RN4220 lethal 3.6, Bead autofluor 21095*, Mtb hypoxia rep 7.1, Sa ugtP lethal 1.1, BJeLR viability -5.8 and Mtb hypoxia rep growth 6.0.
COC(=O)c1cc(NC(=O)c2cccc([N+](=O)[O-])c2C)ccc1Cl was read as PrP UTR inh -9.8, Sa RN4220 lethal 9.2, Bead autofluor 3202, Mtb hypoxia rep 5.5, Sa ugtP lethal -1.1, BJeLR viability 1.1 and Mtb hypoxia rep growth 9.6.
COc1ccccc1CNC(=O)C(C)NS(=O)(=O)c1ccc(Br)cc1 (configuration not stated) was read as PrP UTR inh -2.4, Sa RN4220 lethal -0.5, Bead autofluor 3553, Sa ugtP lethal 1.1 and BJeLR viability -1.6.

4 structures out of the list, sorted by molecular weight, lowest first:
Cc1cc(C)nc(NC(=O)CSc2nccc(C)n2)n1 was read as PrP UTR inh -13.5, Sa RN4220 lethal -3.2, Bead autofluor 2482, Mtb hypoxia rep -3.7, Sa ugtP lethal 2.6, BJeLR viability -14.0 and Mtb hypoxia rep growth -0.9.
COC(=O)c1cc(NC(=O)c2cccc([N+](=O)[O-])c2C)ccc1Cl was read as PrP UTR inh -9.8, Sa RN4220 lethal 9.2, Bead autofluor 3202, Mtb hypoxia rep 5.5, Sa ugtP lethal -1.1, BJeLR viability 1.1 and Mtb hypoxia rep growth 9.6.
`CC(C)COc1ccc(S(=O)(=O)NNC(=O)c2cc3ccccc3o2)cc1` gave PrP UTR inh -6.5, Sa RN4220 lethal 1.5, Bead autofluor 10267, Mtb hypoxia rep -0.5, Sa ugtP lethal -19.5, BJeLR viability -10.9 and Mtb hypoxia rep growth -9.9.
`COC(=O)c1ccc(/C=N/Nc2nc(N3CCCCC3)nc(N3CCCCC3)n2)cc1` gave PrP UTR inh -12.9, Bead autofluor 2205 and BJeLR viability -0.8.

Following part
For CCC(C)(C(=O)NC1CCCC1)N(Cc1ccco1)C(=O)c1ccc2c(c1)OCO2 (configuration not stated) the results were PrP UTR inh -19.9, Sa RN4220 lethal -0.3, Bead autofluor 17659*, Mtb hypoxia rep 8.8, Sa ugtP lethal -0.6, BJeLR viability 3.2 and Mtb hypoxia rep growth 7.6.
Screening O=C(Cn1cc2c(n1)CCCC2)N1CCCc2ccccc21 returned PrP UTR inh 4.2, Sa RN4220 lethal 4.3, Bead autofluor 4073, Sa ugtP lethal -1.5 and BJeLR viability -1.4.
Screening CSc1n[nH]c(N=Cc2oc(O)c3ccccc23)n1 returned Sa RN4220 lethal 2.1, Mtb hypoxia rep 5.6, Sa ugtP lethal 2.5 and Mtb hypoxia rep growth 1.8.
`Cc1ccc(C=NNC(=O)c2cc3c(s2)CCCC3)o1` gave Sa RN4220 lethal 2.4, Mtb hypoxia rep 4.7, Sa ugtP lethal -5.8 and Mtb hypoxia rep growth 2.0.
`O=C(/C=C/c1cccs1)N1CCC2(CC1)Oc1ccc(Cl)cc1C(=O)C21CC(c2cccnc2)=NO1` (configuration not stated) gave PrP UTR inh -41.8, Bead autofluor 3935 and BJeLR viability 5.0.
For COc1ccc(S(=O)(=O)Nc2cccc3c2O[C@H](CN(C)CC2CCCCC2)[C@@H](C)CN([C@H](C)CO)C3=O)cc1 the results were PrP UTR inh -30.6, Sa RN4220 lethal -16.6, Bead autofluor 4166, Mtb hypoxia rep 9.8, Sa ugtP lethal -2.3 and Mtb hypoxia rep growth 9.4.
COc1ccc(NC(=O)CSc2nc(N)c3cc4c(nc3n2)CC(C)(C)OC4)cc1 was read as PrP UTR inh -11.4, Sa RN4220 lethal -1.7, Bead autofluor 4147, Mtb hypoxia rep -0.2, Sa ugtP lethal -0.4, BJeLR viability -5.9 and Mtb hypoxia rep growth -9.3.
CCOc1cccc(C(=O)N2CCCCC2c2cccnc2)c1 (configuration not stated) was read as PrP UTR inh -29.5, Sa RN4220 lethal 8.1, Bead autofluor inconclusive, Mtb hypoxia rep 4.4, Sa ugtP lethal 3.6, BJeLR viability -1.5 and Mtb hypoxia rep growth -3.3.
Screening CC(=O)Nc1ccccc1NC(=O)c1cc(C)cc(C)c1 returned PrP UTR inh -16.3, Sa RN4220 lethal -1.2, Bead autofluor 4780, Mtb hypoxia rep -10.5, Sa ugtP lethal -3.8, BJeLR viability -1.6 and Mtb hypoxia rep growth -6.9.
`COc1ccccc1-c1nnc(SCC(=O)NC2CCCCC2)n1N` gave PrP UTR inh -14.0, Sa RN4220 lethal 2.8, Bead autofluor 3897, Mtb hypoxia rep 1.2, Sa ugtP lethal 5.2 and Mtb hypoxia rep growth 2.9.
Screening CN(C)CCC(=O)NCC1OCCc2ccccc21 (configuration not stated) returned PrP UTR inh -26.6, Sa RN4220 lethal 1.4, Bead autofluor 3742, Sa ugtP lethal -3.4 and BJeLR viability 8.8.
Screening Cc1cc(C)c(NC(=O)c2ccoc2C)c(C)c1 returned PrP UTR inh -12.3, Sa RN4220 lethal 0.6, Bead autofluor 2732, Sa ugtP lethal 4.3 and BJeLR viability 2.3.
For CCOC(=O)N1CCN(C(=O)C(=O)Nc2sc3c(c2C(N)=O)CC(C)(C)OC3)CC1 the results were PrP UTR inh -20.6, Sa RN4220 lethal 3.5, Bead autofluor 5448, Mtb hypoxia rep 1.4, Sa ugtP lethal -5.2, BJeLR viability -1.0 and Mtb hypoxia rep growth 3.8.
CC(Sc1nnc(-c2cccnc2)n1-c1ccccc1)C(=O)NCc1ccc2c(c1)OCO2 (configuration not stated) was read as PrP UTR inh -36.3, Sa RN4220 lethal 5.0, Bead autofluor 10076, Mtb hypoxia rep 16.6, Sa ugtP lethal 7.6, BJeLR viability 4.3 and Mtb hypoxia rep growth 8.3.
Cc1ccc(-n2c(N)cc(=O)nc2SCC(=O)N2CCN(c3ccccc3)CC2)cc1 was read as PrP UTR inh -15.2, Sa RN4220 lethal 3.6, Bead autofluor 6211, Mtb hypoxia rep 1.3, Sa ugtP lethal 1.9, BJeLR viability 6.1 and Mtb hypoxia rep growth -1.9.
For COc1ccc(C(C)C)cc1S(=O)(=O)N1CCN(C)CC1 the results were PrP UTR inh -24.0, Sa RN4220 lethal -0.2, Bead autofluor 3393, Mtb hypoxia rep 3.9, Sa ugtP lethal 8.5, BJeLR viability -4.7 and Mtb hypoxia rep growth 5.1.
For O=C1CC(c2nc3ccccc3[nH]2)CN1Cc1ccccc1 (configuration not stated) the results were PrP UTR inh -9.5, Sa RN4220 lethal 3.4, Bead autofluor 5719, Mtb hypoxia rep 9.1, Sa ugtP lethal 9.8, BJeLR viability -0.8 and Mtb hypoxia rep growth 8.0.
Screening CCn1c(SCC(=O)c2ccc(O)c(O)c2)nnc1-c1ccc(C)cc1 returned PrP UTR inh -2.6, Sa RN4220 lethal -6.2, Bead autofluor 2923, Mtb hypoxia rep 12.4, Sa ugtP lethal -9.5, BJeLR viability 6.3 and Mtb hypoxia rep growth 9.4.
For NS(=O)(=O)c1ccc(CCNC(=O)c2ccc(Br)s2)cc1 the results were PrP UTR inh -6.9, Sa RN4220 lethal 0.1, Bead autofluor 2132, Mtb hypoxia rep 3.7, Sa ugtP lethal -5.2, BJeLR viability 4.5 and Mtb hypoxia rep growth 18.8.

Assay outcomes as filed in PubChem.
